Mtb growth = M. tuberculosis H37Rv growth inhibitors, H37Rv strain (AID 1626); M. tuberculosis H37Rv growth inhibition; higher % means a stronger effect; one-dose inhibition, % at 10 µM; IC50 in µM for titrated hits; 220,000 compounds, 0.95% hits;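 active means confirmed in a dose series; inconclusive means inhibition above 80% but not taken into the dose series; inactive means below 80% or under 30% at every dose of the series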;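 further: bacteria incubated seven days before Alamar blue readout; 0% = bacteria only wells and 100% = bacteria with antibiotic wells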
YopH PTP inh = inhibitors of Yersinia enterocolitica YopH tyrosine phosphatase | 140,000 compounds, 0.16% hits | inhibition, %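 (about 10 µM by stock and volumes)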 | fluorescence Ex485/Em525 | AID 898;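 active means inhibition of 50% or more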;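 further: controls were vehicle for no effect and minimum signal wells for full effect; inactives centre near -20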
Mtb betalactam = beta-lactam sensitization of Mtb H37Rv | inhibition, % at 25 µM | 330,000 compounds, 0.27% hits | M. tuberculosis H37Rv growth with meropenem, percent inhibition; hits of this screen are not shown here | AID 434955;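 active means about 74% or more and at least 40 points above the plate without the antibiotic, then above 30% in a dose series; inconclusive means first-round hits that could not be retested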;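 further: growth measured after seven days incubation then overnight dye step; 0% = bacteria only wells and 100% = bacteria with antibiotic; twin plates without the antibiotic show which effects depend on it; some results filed as inactive read as strong as hits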
Arbovirus anti = arbovirus infection inhibition. 200,000 compounds, 0.37% hits. arbovirus infection cell-based antiviral screen. inhibition, % at 10 µM;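 active means inhibition from about 30%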;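 further: bluetongue infection of BSR cells; cell survival read as ATP light after 72 h; 0% = infected wells without compound and 100% = uninfected wells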
RecA splice inh = inhibitors of M. tuberculosis RecA intein splicing. 290,000 compounds, 0.75% hits. P9WHJ3. inhibition, %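 (about 9 µM by stock and volumes)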. AID 2221. cell-free RecA intein splicing, fluorescence; in the data active means inhibition above about 30%; inconclusive means no clear call, values can overlap the other calls;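 further: 0% = vehicle wells and 100% = reference inhibitor control wells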
Target sequence (P9WHJ3 whole entry, looked up, canonical isoform): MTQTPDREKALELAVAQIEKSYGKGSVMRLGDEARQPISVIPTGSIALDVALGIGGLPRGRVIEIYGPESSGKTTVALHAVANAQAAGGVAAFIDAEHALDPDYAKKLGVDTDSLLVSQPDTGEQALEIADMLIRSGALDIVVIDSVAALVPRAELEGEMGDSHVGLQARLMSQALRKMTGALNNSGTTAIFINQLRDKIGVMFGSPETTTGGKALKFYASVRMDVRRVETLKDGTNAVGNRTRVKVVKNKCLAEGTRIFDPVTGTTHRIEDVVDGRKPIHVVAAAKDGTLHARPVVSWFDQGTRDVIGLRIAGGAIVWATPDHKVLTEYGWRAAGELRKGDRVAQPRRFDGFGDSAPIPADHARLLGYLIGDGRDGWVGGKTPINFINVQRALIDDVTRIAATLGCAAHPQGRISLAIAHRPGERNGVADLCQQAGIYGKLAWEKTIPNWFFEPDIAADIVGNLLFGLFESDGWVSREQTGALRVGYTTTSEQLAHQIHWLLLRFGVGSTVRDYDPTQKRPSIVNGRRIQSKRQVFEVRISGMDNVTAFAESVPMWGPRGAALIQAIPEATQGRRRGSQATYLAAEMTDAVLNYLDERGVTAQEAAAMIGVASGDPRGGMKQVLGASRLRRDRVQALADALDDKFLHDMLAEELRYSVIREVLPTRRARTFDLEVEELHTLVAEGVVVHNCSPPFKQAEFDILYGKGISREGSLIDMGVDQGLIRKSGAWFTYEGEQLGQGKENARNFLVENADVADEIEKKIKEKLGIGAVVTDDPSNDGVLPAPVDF
Arbovirus anti repeat = also measured in Arbovirus anti; calls as there; inhibition, %; measured here: 10K subset replicate screen; many hits read low in the repeat;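 first of two repeat runs on a subset; 0% = infected and 100% = uninfected wells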
The depositor's hits bear a star; u = inconclusive; x = no result given.

SMILES | Mtb growth | YopH PTP inh | Mtb betalactam | Arbovirus anti | RecA splice inh | others
O=C(NCC1CCCO1)c1sc2ccccc2c1Cl (configuration not stated) | 5% | -41 | 4 | -7 | -3.5
CCc1nc2ccccc2c(C(=O)OC2CCOC2=O)c1C (configuration not stated) | -4% | -21 | -8 | 11 | -2.6
Nc1c(C(=O)c2ccc(Cl)cc2)sc2c1c(=O)[nH]c(=O)n2-c1ccccc1 | 64% | -17 | 14 | 0 | -7.8
CC(C)CNC(=O)CC(NCC(C)C)C(=O)O (configuration not stated) | 4% | 11 | -5 | 0 | 2.6
Cc1ccc(C(=O)Nc2ccc(O)c(C(=O)O)c2)o1 | 4% | -7 | 2 | 3 | -1.3
CNC(=O)c1cc(S(=O)(=O)Nc2ccc3c(c2)OCCO3)ccc1C | x | x | -1 | x | 1.7
O=C1c2cccc3cccc(c23)C(=O)N1c1ccc(O)cc1 | x | x | 1 | x | -1.9
NS(=O)(=O)c1ccc(NS(=O)(=O)c2ccc(Br)cc2)cc1 | x | x | 2 | x | -2.3
O=C(CSc1ccc2c(c1)OCCO2)NCC1CCCO1 (configuration not stated) | -13% | -20 | 11 | 0 | -3.0
CCc1ccccc1OCC(=O)NC1CCCC1 | -6% | 14 | x | 3 | -7.4
CN(C)S(=O)(=O)c1cccc(NC(=O)CCSc2ccc(Cl)cc2)c1 | -6% | -17 | 14 | 12 | -1.0
Cc1cc(C)n(-c2nc(NCCC(C)C)c3c4c(sc3n2)COC(C)(C)C4)n1 | x | -22 | x | -13 | 0.4
Cc1occc1C(=O)NNC(=S)Nc1ccccc1 | 5% | -21 | -9 | 3 | -1.1
O=C1C(Cl)=C(N2CCOCC2)C(=O)N1c1ccccc1 | -1% | -28 | 6 | 12 | -1.1
CS(=O)(=O)NC1CCN(Cc2ccccc2)CC1 | -3% | -28 | -8 | -1 | -1.2
COc1cccc(COC(=O)C2CCN(S(=O)(=O)c3ccc(C)cc3C)CC2)c1OC | x | x | 1 | x | 4.0
Cc1c(NC(=O)C(c2ccccc2)c2ccccc2)cccc1C(=O)O | -4% | x | -6 | x | -0.1
O=C(CCc1ccccc1)N1C[C@H]2C[C@@H](C1)c1cccc(=O)n1C2 | x | x | -2 | x | 0.3
CCNC(=S)NNC(=O)c1cc(C)on1 | -3% | -7 | -12 | 11 | -2.9
CC(=O)Nc1ccc(OS(=O)(=O)c2ccccc2C)cc1 | -1% | x | 4 | -5 | -3.3
CC(=O)c1cccc(NC(=O)COC(=O)COc2c(Cl)cc(Cl)c3ccc(C)nc23)c1 | 4% | -9 | 22 | -3 | -1.3
Cc1ccc(-c2nc(C3CCN(S(C)(=O)=O)CC3)no2)cc1 | 0% | 16 | -13 | 1 | -0.7
O=C(CNC(=O)c1ccc(Cl)cc1Cl)OCc1nnc(-c2ccccc2)o1 | x | x | -4 | x | 1.9
COc1ccccc1NC(=O)CN1CCOCC1 | x | x | -7 | x | -3.6
CCn1c(=O)n(Cc2ccco2)c(=N)c2c3c(sc21)COC(C)(C)C3 | 11% | -30 | 2 | 14 | -0.3
O=C(Nc1ccc(Oc2c(F)c(F)c(F)c(F)c2F)cc1)OC1CCN2Cc3ccccc3N=C12 (configuration not stated) | 9% | x | 37 | x | 6.4
CC(=O)C1=C(c2ccccc2)NC(=S)NC1c1cc(Cl)c(OC(C)C)c(Cl)c1 (configuration not stated) | 7% | 25 | 22 | -11 | 8.3
O=c1c2cc3c(cc2[nH]c(=S)n1CCN1CCOCC1)OCO3 | -8% | 3 | 3 | 2 | 0.7
O=c1c2cn[nH]c2nc(SCc2cc(=O)n3cc(Br)ccc3n2)n1-c1ccc(Br)cc1 | 13% | x | 62 | 10 | 3.9
Cc1ccc(OCC(=O)N/N=C\c2cn(C)c3ccccc23)c([N+](=O)[O-])c1 | -9% | -45 | -3 | -14 | -0.6

A portion taken from the entries so far:
SMILES | Mtb growth | YopH PTP inh | Mtb betalactam | Arbovirus anti | RecA splice inh | others
COc1ccccc1NC(=O)CN1CCOCC1 | x | x | -7 | x | -3.6
CCn1c(=O)n(Cc2ccco2)c(=N)c2c3c(sc21)COC(C)(C)C3 | 11% | -30 | 2 | 14 | -0.3
O=C(Nc1ccc(Oc2c(F)c(F)c(F)c(F)c2F)cc1)OC1CCN2Cc3ccccc3N=C12 (configuration not stated) | 9% | x | 37 | x | 6.4

More results follow.
SMILES | Mtb growth | YopH PTP inh | Mtb betalactam | Arbovirus anti | RecA splice inh | others
CCOC(=O)C1CCN(C(=O)Cn2cc(C(=O)c3ccco3)c3ccccc32)CC1 | 3% | -42 | -6 | -3 | 3.0
COc1cccc2sc(Nc3nnc(-c4ccc(F)cc4)o3)nc12 | 9.2µM* | -3 | 99 | -23 | -12
Cc1ccc2nc(SCC(=O)NCc3ccccc3Cl)nc(=O)n2c1 | x | x | 3 | x | -3.1
COc1ccc(-c2coc3c(CN4CCCCC4C)c(O)ccc3c2=O)cc1 (configuration not stated) | x | x | 1 | x | -1.6
Cc1ccc(CN2C(=O)CSc3ccc(C(=O)NCCN4CCOCC4)cc32)cc1 | -5% | -17 | -3 | -2 | 5.0
COc1ccccc1-c1nc(SCC(=O)Nc2ccccc2F)n[nH]1 | x | x | 5 | x | 0.0
CCOCCOCN(C#N)c1nc(OC)nc(N(C)C)n1 | -9% | -23 | u | 2 | -1.0 | Arbovirus anti repeat=3
Cc1ccc(N(C(=O)C2CCCC2)C2C=CS(=O)(=O)C2)cc1 (configuration not stated) | -1% | 27 | -2 | -3 | -3.8
CC(C)(C)c1ccc(Cn2nnc3c(=O)[nH]c(C4CCCN(C(=O)c5ccco5)C4)nc32)cc1 (configuration not stated) | x | x | 10 | x | -4.2
CCOC(=O)c1c(S(=O)(=O)N2CCCCC2C)c(C)n(C)c1C (configuration not stated) | x | x | 6 | x | 0.6
COc1ccccc1NC(=O)CN1C(=O)C(C)SC(C)C1=O (configuration not stated) | -11% | -6 | -1 | -11 | 4.7
N#Cc1ccc(NC(=O)Cn2cnc(S(=O)(=O)N3CCCCC3)c2)cc1 | x | x | -2 | x | 1.8
COc1cc2c(cc1NC(=O)CN(C)Cc1nc3ccccc3c(=O)[nH]1)oc1ccccc12 | 9% | -20 | 90 | 2 | -0.8
Cc1ccccc1NC(=O)NCCCN1CCN(C)CC1 | x | x | u | x | -1.3
C[C@H](NC(=O)c1nc[nH]c1C(=O)N1CCNCC1)C(=O)OCc1ccccc1 | x | x | 2 | x | 1.2
COc1ccc(CCNS(=O)(=O)c2cccc([N+](=O)[O-])c2)cc1 | x | x | 8 | x | -2.1
CC(NC(=O)C1CCCCC1)C(c1cccs1)N1CCN(C)CC1 (configuration not stated) | -8% | x | 3 | x | 0.2
Cc1occc1C(=O)N1CCN(c2ccccc2)CC1 | -6% | -22 | 14 | -2 | -2.2
CCCCOc1ccc(S(=O)(=O)NCc2csc(C)n2)cc1 | 22% | -5 | 19 | 15 | 1.0
O=C(Nc1ccc(N2CCOCC2)cc1)C1CC(=O)N(c2ccc(F)cc2)C1 (configuration not stated) | -6% | x | 2 | -4 | -4.3
O=C(Nc1ccncc1)c1cccc(F)c1 | -1% | -10 | -5 | 2 | -0.7 | Arbovirus anti repeat=1
O=C(c1ccc(S(=O)(=O)N2CCCC2)cc1)N1CCN(c2ccccc2F)CC1 | x | x | u | x | -0.7
Cc1onc(-c2ccccc2Cl)c1C(=O)N1CCCC1 | x | x | 3 | x | -8.1
O=C(OCCCOC(=O)c1ccccc1O)c1ccccc1O | x | x | -15 | x | 10
CCOC(=O)C1=C(C)OC(N)=C(C#N)C1c1c(C)nn(-c2ccccc2)c1Cl (configuration not stated) | -10% | -7 | u | 4 | 0.6 | Arbovirus anti repeat=-1
CCOC(=O)N1CCc2c(sc3nc4n(c(=O)c23)N=C(C)CS4)C1 | -11% | -12 | -5 | 11 | -3.0
Cc1ccc(NS(=O)(=O)c2cc(-c3cc(C)no3)ccc2C(C)C)nc1 | x | x | 16 | x | -3.0
O=C(Nc1ccc(F)cc1)c1cccc2c1C(=O)N(CC1CCCO1)C2 (configuration not stated) | x | x | -2 | x | 0.7
COc1ccc(CNC(=O)CN(C(=O)CCC(=O)Nc2ccccn2)c2ccc3c(c2)OCO3)cc1 | x | x | -2 | x | 0.9
CN(CC(=O)NCc1ccco1)S(=O)(=O)c1ccc(F)cc1 | x | x | 3 | x | -1.5
O=S(=O)(Nc1ccc(S(=O)(=O)N2CCOCC2)cc1)c1ccccc1 | -5% | -28 | -1 | 11 | -0.7
CC(=O)Nc1ccc2nc(-c3ccncc3)[nH]c2c1 | -5% | -18 | -9 | 1 | -0.4
O=C(Nc1ccccc1)c1cc2ccc3ccccc3c2s1 | 6% | x | 10 | x | -1.8
CCN(CC)c1ccc(NC(=O)CN2CCN(S(=O)(=O)c3cc(Cl)ccc3OC)CC2)cc1 | 11% | -17 | 5 | -29 | -4.7
COc1ccc(OCC(=O)NC(=S)Nc2ccc(S(=O)(=O)Nc3cc(C)on3)cc2)cc1 | x | x | 11 | x | -2.0
Cc1ccc([N+](=O)[O-])c2c1C(N1CCCCC1)C(C)(C)O2 (configuration not stated) | -3% | x | 1 | 1 | 4.5
CN(C(=O)COC(=O)c1cnc(Cl)c(Cl)c1)C1CCS(=O)(=O)C1 (configuration not stated) | 1% | x | -2 | 5 | 2.1
O=C(CC1C(=O)NCCN1Cc1cccc(Oc2ccccc2)c1)NCCc1cscn1 (configuration not stated) | -2% | x | -3 | 3 | 2.3
Cc1ccc(NC(=O)c2ccccc2F)c(NC(=O)c2ccccc2F)c1 | x | x | -5 | x | 1.8
Cc1ccc(S(=O)(=O)Nc2nsc(N)n2)cc1 | -7% | -8 | -18 | 4 | 0.0
CCC(C(=O)OCCOCCN(CC)CC)c1ccccc1 (configuration not stated) | -9% | x | -5 | x | -1.1
CC(C)CNc1ncnc2c1sc1nc(N3CCOCC3)c3c(c12)CC(C)(C)OC3 | 5% | -30 | -4 | 3 | -2.3
COc1ccc(N2CCN(S(=O)(=O)Cc3ccccc3)CC2)cc1 | 0% | 1 | 18 | -1 | 0.4
O=C(C1CCCN(S(=O)(=O)c2cccc3nsnc23)C1)N1CCCCCC1 (configuration not stated) | 4% | x | 7 | 2 | -7.7
CCOC(=O)c1sc(-c2ccccc2)cc1NC(=O)Nc1ccccc1 | 31% | -7 | 12 | -5 | 0.0

Quoted at random: two records from the list.
SMILES | Mtb growth | YopH PTP inh | Mtb betalactam | Arbovirus anti | RecA splice inh | others
COc1ccc(CCNS(=O)(=O)c2cccc([N+](=O)[O-])c2)cc1 | x | x | 8 | x | -2.1
O=C(CC1C(=O)NCCN1Cc1cccc(Oc2ccccc2)c1)NCCc1cscn1 (configuration not stated) | -2% | x | -3 | 3 | 2.3

An excerpt from above in order of molar mass, low to high:
SMILES | Mtb growth | YopH PTP inh | Mtb betalactam | Arbovirus anti | RecA splice inh | others
O=C(Nc1ccccc1)c1cc2ccc3ccccc3c2s1 | 6% | x | 10 | x | -1.8
CCC(C(=O)OCCOCCN(CC)CC)c1ccccc1 (configuration not stated) | -9% | x | -5 | x | -1.1
CCOC(=O)c1sc(-c2ccccc2)cc1NC(=O)Nc1ccccc1 | 31% | -7 | 12 | -5 | 0.0

More entries
SMILES | Mtb growth | YopH PTP inh | Mtb betalactam | Arbovirus anti | RecA splice inh | others
O=C(CN(Cc1ccccc1)S(=O)(=O)c1cccc(C(F)(F)F)c1)NC1CCCCC1 | -6% | -25 | -4 | 2 | -13
Cc1ccc(-c2nc3ccccc3c(=O)n2-c2c(C)n(C)n(-c3ccccc3)c2=O)cc1 | -3% | x | -6 | x | 1.2
COCC1CCN(C(=O)C2CCC(=O)N(Cc3cccc(F)c3)C2)CC1 (configuration not stated) | x | x | -8 | x | -1.4
CC(=O)c1ccc(S(=O)(=O)NCc2nnnn2-c2ccccc2)cc1 | x | x | 0 | x | -0.4
COc1ccccc1OCCC(=O)Nc1cccc(S(=O)(=O)N2CCCCC2)c1 | 0% | -21 | -13 | 11 | 2.6
COc1ccccc1OCc1cc(C(=O)NCCN2CCCC(O)C2)no1 (configuration not stated) | x | x | -9 | x | -1.4
CCOC(=O)C(C(=O)OCC)N(C#N)c1nc(N(C)C)nc(N(C)C)n1 | 4% | x | 3 | 0 | -4.1
CCn1c(CNc2ccc(Cl)cc2)nnc1SCc1ccccc1 | 4% | -5 | -3 | 3 | 1.6
Oc1ccc(Br)cc1C=Nc1ccc2c3c(cccc13)CC2 | 7% | 33 | 9 | -6 | -4.7
CNC(=S)NNC(=O)c1sccc1C | -1% | -10 | -6 | -1 | -1.1
CCOC(=O)C1=C(CSc2nncn2C)NC(=O)NC1c1cc(OCC)ccc1OCC (configuration not stated) | 1% | 18 | -7 | -4 | x
CN1C(C(=O)NCc2ccccc2)CC2Cn3c(nc4cc5ccccc5cc43)C21 (configuration not stated) | -7% | x | 8 | x | -3.5

Screens (PubChem BioAssay)

A portion of the library; the hit share may differ from the screen's.
